Assay outcomes from PubChem BioAssay.
Ecoli rRNA inh – reduced GFP signal of wild-type E. coli, primary screen, bacterial rRNA inhibitor project, GFP/RFP fluorescence, OD600, single point. E. coli WT GFP vs humanized-ribosome RFP mutants, 24 h; active compounds read low; DMSO median 0, no signal -100. AID 720706, 2013. actives 1.6% (n = 350,000). GFP signal change (wild-type ribosome), % (test concentration not listed);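 active = significant combined selectivity score with lowered wild-type GFP, culture density cut under 30%, mutant RFP and density less affected; inactive = any of these conditions unmet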; also: one replicate is shown; some compounds called inactive have numbers as strong as hits
Beta apoptosis – inhibitors of cytokine-induced beta cell apoptosis, primary screen, luminescence; INS-1E cytokine-induced death, ATP luminescence, 48 h; percent of positive-control rescue, neutral wells zero; protection from apoptosis, % (concentration not given with the values); actives 0.8% (n = 300,000); AID 435005, 2010;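 active = all replicates at 75% or more, or half of them and the mean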;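 also: 0% = cytokine-treated negative control wells and 100% = positive control rescue; higher means more ATP so stronger rescue from cytokine killing; wells of about 40 µL received 100 nL stock; the first replicate is given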
FGF22 binding – binders of human FGF22 protein, primary screen, FGF22 synaptogenesis inhibitor project, biophysical, thermal shift, single point; actives 1.5% (n = 340,000); calls only at 9.99 µM; recombinant FGF22 thermal shift, SYPRO orange fluorescence; percent of sucrose octasulfate shift, DMSO zero; AID 651658, 2012;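 active = melting point raised past a set limit in the mean and every replicate; three in four hits are not shown here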
Target sequence (Q9HCT0 whole entry, looked up): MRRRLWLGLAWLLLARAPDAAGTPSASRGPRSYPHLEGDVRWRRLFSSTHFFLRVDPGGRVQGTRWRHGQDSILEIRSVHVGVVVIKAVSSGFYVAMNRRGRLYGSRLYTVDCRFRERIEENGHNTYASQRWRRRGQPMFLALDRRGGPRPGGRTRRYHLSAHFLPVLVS
AF4-AF9 inh – inhibitors of AF4 peptide binding to AF9, primary screen, biochemical, AlphaScreen, biotin-AF4 peptide, FLAG-AF9, single point | Protein AF-9 (Homo sapiens), P42568 | inhibition, % at 10 µM | actives 0.47% (n = 350,000) | AID 651704, 2012;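 active = every replicate reaching a set inhibition limit, whatever the replicate mean, cut at about 25% in these data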;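 also: 0% = plate neutral control median and 100% = total signal loss; the record names both 10 and 1 µM as test concentration; the first replicate is given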
Target sequence (P42568 whole entry, looked up): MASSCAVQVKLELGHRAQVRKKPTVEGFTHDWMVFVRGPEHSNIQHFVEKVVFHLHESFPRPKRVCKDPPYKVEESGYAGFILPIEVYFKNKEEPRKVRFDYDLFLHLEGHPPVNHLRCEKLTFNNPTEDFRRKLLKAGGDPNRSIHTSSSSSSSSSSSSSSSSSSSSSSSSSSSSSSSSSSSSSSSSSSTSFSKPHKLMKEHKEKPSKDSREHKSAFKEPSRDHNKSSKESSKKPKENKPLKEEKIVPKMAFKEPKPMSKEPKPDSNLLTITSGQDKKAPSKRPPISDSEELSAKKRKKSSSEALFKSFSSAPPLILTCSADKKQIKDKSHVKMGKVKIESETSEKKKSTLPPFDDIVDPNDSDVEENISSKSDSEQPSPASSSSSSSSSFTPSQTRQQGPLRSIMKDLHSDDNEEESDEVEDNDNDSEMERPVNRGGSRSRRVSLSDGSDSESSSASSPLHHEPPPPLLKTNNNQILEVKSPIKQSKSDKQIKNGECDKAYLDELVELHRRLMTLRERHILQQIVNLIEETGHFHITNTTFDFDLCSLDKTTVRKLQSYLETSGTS
Ecoli growth – E. coli growth inhibition, primary screen, OD600 | Escherichia coli growth, 23 h; active compounds read low | OD600 absorbance (no concentration beside the values) | actives 0.21% (n = 330,000) | AID 1053175, 2014;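 active = OD600 absorbance below the run mean of sample wells minus 3.6 SD, in any replicate, cut at about 0.56 in these data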;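 also: stock transfer was 300 nL into about 60 µL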
T cruzi repl – inhibitors of intracellular T. cruzi growth, primary screen, luminescence, NIH3T3 host cells; T. cruzi beta-gal in NIH3T3, 90 h; inhibition, % (concentration not given with the values); actives 1.4% (n = 300,000); AID 1885, 2009;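 active = mean inhibition across valid replicates above about 55%, limit read from the data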;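 also: signal also drops with host cell toxicity which is not excluded here; 0% = plate median of DMSO wells and 100% = zero luminescence signal; higher percent means less beta-gal luminescence so fewer parasites; stock transfer was 50 nL into about 50 µL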
A1 inh – caspase 3/7 activation in MEF A1-2A-BIM cells, primary screen, A1 inhibitor project, cell-based, luminescence, HTS. Caspase-Glo 3/7 luminescence, 3 h; percent of clofoctol response, vehicle zero. caspase activation, % (no concentration beside the values). actives 0.066% (n = 330,000);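 active = over half of replicate activation scores above 10%, or exactly half above 10 with the replicate mean above 10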;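 also: wells of about 30 µL received 50 nL stock; many hits fall short of the cut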
UCH37 inh – inhibitors of human UCH37 deubiquitinase, primary screen, biochemical, Ub-AMC cleavage, fluorescence; Ubiquitin carboxyl-terminal hydrolase isozyme L5 (Homo sapiens), Q9Y5K5; purified proteasome/UCH37; inhibition, % (no concentration beside the values); actives 0.33% (n = 330,000);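 active = mean of two replicates above 20%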;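 also: 0% = compound-free wells with enzyme and 100% = wells lacking proteasome; stock transfer was 100 nL into about 20 µL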
Target sequence (Q9Y5K5 whole entry, looked up): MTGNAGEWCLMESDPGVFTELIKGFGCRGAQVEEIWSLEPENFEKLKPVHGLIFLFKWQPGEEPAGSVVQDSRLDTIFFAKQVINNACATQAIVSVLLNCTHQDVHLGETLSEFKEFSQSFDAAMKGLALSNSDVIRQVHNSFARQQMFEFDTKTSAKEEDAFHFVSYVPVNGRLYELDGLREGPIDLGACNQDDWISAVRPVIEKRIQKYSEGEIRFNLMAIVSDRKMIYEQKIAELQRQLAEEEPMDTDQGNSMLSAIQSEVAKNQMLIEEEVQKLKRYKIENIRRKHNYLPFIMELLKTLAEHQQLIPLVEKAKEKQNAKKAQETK
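assay system = human UCH37 enzyme supplied as purified proteasome complex | amount = proteasome at 0.15 nM in the dispensed enzyme solution | schedule = 30 min compound-proteasome preincubation then 25 min substrate reaction, room temperature | measured by = fluorescence, ex 355 nm, em 460 nm | benchmarks = no-proteasome wells (full inhibition) and compound-free wells (no inhibition)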
Ecoli rRNA inh OD600 – also measured in Ecoli rRNA inh; calls as there; OD600 change, %; measured here: OD600 growth;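 optical density of the mix in the first replicate; 0 = DMSO median and -100 = no signal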
Ecoli rRNA inh RFP – also measured in Ecoli rRNA inh; calls as there; RFP signal change, %; measured here: RFP humanized mutant strains;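 first replicate; 0 = DMSO median and -100 = no signal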
* marks the source's active call; other numbers are inactive results; i = inactive; . = no result given; & = joins results of further samples. Not all compounds are listed; rates above refer to the full screens.

SMILES	Ecoli rRNA inh	Ecoli rRNA inh OD600	Ecoli rRNA inh RFP	Beta apoptosis	FGF22 binding	AF4-AF9 inh	Ecoli growth	T cruzi repl	A1 inh	UCH37 inh
COc1cc(/C=C2\C(=O)N(c3ccc(NC(C)=O)cc3)N=C2c2ccccc2)ccc1O	-5.6	-5.5	-4.6	-2.2	i	8.0	0.647	-26.2	-0.7	2.9
CCOC(=O)CCC(=O)Nc1ccc(S(=O)(=O)N2CCCC2)cc1	4.4	7.3	-2.1	-8.9	i	-10.7	0.701	-10.9	-0.1	0.1
COc1ccccc1NC(=O)NCCCN1CCN(c2cccc(Cl)c2)CC1	-13.7	-60.1	7.8	4.9	i	6.4	0.653	11.9	-0.3	2.9
CCc1cccc(C)c1NC(=O)COn1nnc2ccc(C(F)(F)F)cc21	.	.	.	3.6	.	.	0.705	-6.1	0.2	3.1
CCc1ccc(NC(=O)CCc2c(C)nn(-c3ccc(N4CCCCC4)nn3)c2C)cc1	-22.9*	-8.2*	-2.7*	5.8	i	2.4	0.651	10.3	-2.8	1.9
Cc1cc2cc(C=O)c(Cl)nc2cc1C	.	.	.	-18.8	.	.	0.626	-1.3	-1.3	0.9
CN(C(=O)CSc1nnnn1-c1ccc(O)cc1)C1CCS(=O)(=O)C1 (stereo not given)	19.6	18.4	0.9	1.6	i	-2.1	0.701	-30.0	0.6	2.1
CCOC(=O)N1CCC(Nc2c(NCCN3CCN(c4ccccc4F)CC3)c(=O)c2=O)CC1	15.9&4.3	6.6&2.2	4.8&1.1	.	i	-0.2&2.6	0.667&0.722	-7.7	0.6	2.9&3.6
Cc1ccc(O)c(NC(=O)CSc2ccc(Cl)cc2)c1	6.3	8.4	-3.9	5.1	i	-2.7	0.677	-5.0	0.6	2.9
Nc1ncccc1OCc1ccc(Cl)c(Cl)c1	-21.3*	-10.4*	6.7*	4.9	i	3.7	0.593	2.1	-7.5	2.2
CCOc1ccc(-c2c(C#N)c(N)nc3c2c(=O)n(C)c(=O)n3C)cc1OC	.	.	.	-0.2	.	.	0.702	-10.3	1.7	2.4
CC1=C(C(=O)Nc2ccccc2F)C(c2cccs2)C2=C(CCCC2=O)N1 (stereo not given)	0.2	1.2	0.7	-13.2	i	-1.8	0.71	-3.3	-0.2	-64.4
COc1cc(=O)[nH]c(SC(C)C(=O)Nc2nc3c(s2)CCCC3)n1 (stereo not given)	-2.6	-5.1	0.7	-1.9	i	-0.7	0.713	-5.1	1.0	6.4
Nc1ccccc1NC1CCCCC1	-35.1	-64.5	6.5	.	i	32.6*	0.661	.	.	1.9
CS(=O)(=O)c1ccc(Cl)c(C(=O)Nc2ccc3nc(N4CCOCC4)sc3c2)c1	5.4	7.7	10.9	-0.1	i	5.5	0.682	.	-0.9	0.4
CCN(CC)C(=O)C1CCCN(Cc2sccc2C)C1 (stereo not given)	26.8	9.7	-0.1	-2.9	i	1.9	0.656	1.2	0.3	1.1
COCCCNC(=O)c1ccc2c(c1)ncn2-c1ccc(C)cc1C	-4.6	5.7	0.1	-1.9	i	-2.8	0.624	-12.3	1.4	0.6
O=C(CN1C(=O)c2ccccc2S1(=O)=O)c1ccc(F)cc1	11.1	15.2	-0.7	-5.7	.	-2.0	0.648	-9.9	-3.7	5.7
NC(=S)NNC(=O)c1cc(C(F)(F)F)cc(C(F)(F)F)c1	3.2	2.8	-0.4	.	i	.	0.656	-8.9	0.9	5.2
CC(=O)CCc1c[nH]c2c(C(=O)O)cccc12	.	.	.	-3.0	.	.	0.676	-0.4	0.0	1.0
O=C(O)CCCSCC(=O)Nc1ccccc1	.	.	.	-3.9	.	.	0.732	0.5	0.5	5.7
CCCOC(=O)c1[nH]c2c(c1C)C(=O)CC(c1cc(OC)c(OC)c(OC)c1)C2 (stereo not given)	-2.6	-2.1	0.4	61.1	i	-2.4	0.757	-8.0	-0.3	2.0
CCCC(=O)Nc1ccc(NC(=O)c2cc3ccccc3o2)c(OC)c1	7.3	3.4	5.3	6.6	i	-1.1	0.697	16.5	-3.3	-92.6
O=C(CCS(=O)(=O)c1cccc2nonc12)N1CC(=O)N(CCc2ccccc2)C(=O)C1	.	.	.	7.5	.	.	0.7	-5.5	0.3	4.0
CCOC(=O)c1c(C)[nH]c(N=Nc2ccccc2Cl)c1C	-7.9	-1.0	24.7	5.7	.	8.4	0.691	-2.5	-0.3	4.7
CN(Cc1ccccc1)C(=O)c1ccc(NC(=O)C2=CSCCO2)cc1	-19.8	-8.7	-4.5	-7.9	i	4.4	0.686	13.2	0.7	7.5
O=C(NCCCn1ccnc1)C(=O)NCC1OCCN1S(=O)(=O)c1ccccc1 (stereo not given)	1.1	1.0	0.0	6.2	i	3.8	.	-0.3	-0.8	.
Cc1ccc(OCC(=O)OCC(=O)c2c(N)n(C)c(=O)n(C)c2=O)cc1C	.	.	.	-9.2	.	.	0.641	-5.9	1.9	-0.2
Cc1c(NC(=O)C(C)OC(=O)CCc2c[nH]c3ccccc23)c(=O)n(-c2ccccc2)n1C (stereo not given)	9.8	4.4	3.7	0.1	i	-0.8	.	-14.0	0.6	.
C=CCNC(=O)c1onc(CSc2ccc(F)c(F)c2)c1C(=O)NCC=C	.	.	.	.	.	.	0.682	-10.5	0.3	3.7
CSc1nc2ccc(NC(=O)c3ccco3)cc2s1	.	.	.	4.1	.	.	0.629	2.8	-2.7	4.3
Cc1ccc(C(=O)c2cn[nH]c2-c2ccccc2O)cc1	.	.	.	-13.9	.	.	0.657	-12.0	-0.3	0.7
COc1ccc(-c2cc(-c3n[nH]c(=S)n3-c3cc(OC)ccc3OC)[nH]n2)cc1	.	.	.	-14.5	i	-38.7	0.643	8.7	-0.5	-0.4
Cc1ccn2c(Nc3ccccc3)c(-c3ccccn3)nc2c1	6.6	-1.5	1.3	96.3*	i	-21.0	0.522	61.7*	-0.1	-6.5
CCCCNS(=O)(=O)c1ccc(NS(=O)(=O)c2c(C)cc(C)cc2C)cc1	.	.	.	1.0	.	.	0.718	3.1	-0.1	5.8
FC(F)(F)c1cc(-c2ccco2)nc2ncnn12	15.8	12.7	5.4	-4.6	i	-5.7	0.667	-2.0	0.2	-184.1
CCC1(c2ccccc2)NC(=O)N(CC(=O)NC2CCCCCC2)C1=O (stereo not given)	-2.7	-1.4	-2.7	-2.5	i	-0.4	0.684	.	0.3	-1.3
Cc1nn(-c2ccccc2)c(C)c1NC(=O)COC(=O)CCOc1ccccc1	4.8	6.7	-1.1	-0.3	i	-12.9	0.678	-3.1	-0.1	1.6
COc1cc(C(=O)OC2CCCCC2=O)cc(OC)c1C (stereo not given)	.	.	.	-13.7	.	.	0.737	-1.4	0.5	5.5
Cc1ccc(CCNC(=O)C2CCCN2S(=O)(=O)c2ccc3c(c2)CCC(=O)N3)cc1 (stereo not given)	.	.	.	7.3	.	.	0.728	44.8	0.3	2.2

Random excerpt: three compounds from above
SMILES	Ecoli rRNA inh	Ecoli rRNA inh OD600	Ecoli rRNA inh RFP	Beta apoptosis	FGF22 binding	AF4-AF9 inh	Ecoli growth	T cruzi repl	A1 inh	UCH37 inh
CCCOC(=O)c1[nH]c2c(c1C)C(=O)CC(c1cc(OC)c(OC)c(OC)c1)C2 (stereo not given)	-2.6	-2.1	0.4	61.1	i	-2.4	0.757	-8.0	-0.3	2.0
Cc1ccc(OCC(=O)OCC(=O)c2c(N)n(C)c(=O)n(C)c2=O)cc1C	.	.	.	-9.2	.	.	0.641	-5.9	1.9	-0.2
COc1cc(C(=O)OC2CCCCC2=O)cc(OC)c1C (stereo not given)	.	.	.	-13.7	.	.	0.737	-1.4	0.5	5.5

(list continues)
SMILES	Ecoli rRNA inh	Ecoli rRNA inh OD600	Ecoli rRNA inh RFP	Beta apoptosis	FGF22 binding	AF4-AF9 inh	Ecoli growth	T cruzi repl	A1 inh	UCH37 inh
Cc1ccc(NC(=O)CCc2c(C)nn(-c3ccc(N4CCCCC4)nn3)c2C)cc1C	-7.8	-7.4	0.6	.	i	1.9	0.698	22.5	-5.8	4.6
C[C@H](CO)N1C[C@H](C)[C@@H](CN(C)Cc2ccc(Oc3ccccc3)cc2)Oc2c(NS(=O)(=O)c3cn(C)cn3)cccc2C1=O	-4.5	1.0	-1.8	-3.9	i	2.4&12.9	0.77	.	2.2	-45.6
COc1cc(/C=C2/SC(=S)N(CC(=O)Nc3nc4ccccc4s3)C2=O)cc(OC)c1OC	.	.	.	-12.3	.	.	0.703	5.0	0.4	7.2
O=C(NCC1CCCO1)C1CC(=O)N(C2CCCC2)C1 (stereo not given)	.	.	.	-3.7	.	.	0.753	-6.3	0.7	2.4
COc1cccc(C(=O)C2CCCN(C(=O)c3cccc(C#CC(C)(C)O)c3)C2)c1 (stereo not given)	1.7	1.4	1.6	-3.0	.	-0.4	0.708	6.6	0.6	1.3
CC1CCCN(C(=O)CSc2cnc3ccccc3n2)C1 (stereo not given)	-18.1	-14.3	-5.2	-3.1	i	-5.0	0.754	-1.2	-0.8	6.3
CSc1ccccc1NC(=O)C1=CC(c2cccs2)=NS(=O)(=O)N1C	-19.5	-31.1	-8.4	-5.3	i	4.6	0.774	-3.5	.	6.0
Cc1ccc(C)c(NC(=O)C2CC3CCC2C3)c1 (stereo not given)	2.4	1.6	-2.0	-0.2	i	0.7	.	-10.7	-1.0	.
Cc1nc2cc(F)ccc2n1C1CCN(S(=O)(=O)c2ccccc2)CC1	.	.	.	1.2	.	.	0.674	2.4	0.4	2.5
COc1ccc(C(=O)Nc2c(C)csc2C(=O)O)cc1	1.4	0.6	0.0	-2.7	i	-0.4	0.683	-15.2	-0.9	1.5
COc1ccc(C(=O)c2coc3ccc(O)c(CN(C)C)c23)cc1	-1.7	-6.0	1.1	-3.0	i	1.3	0.686	-35.5	-0.3	1.7
COc1ccc(S(=O)(=O)N(C)C)cc1NC(=O)COC(=O)C1CC1	-0.2	6.1	-1.5	1.3	i	-12.4	0.716	.	-0.2	3.0
COc1ccc(CN(C)C(=O)c2ccc(NS(=O)(=O)c3ccc(C)c([N+](=O)[O-])c3)cc2)c(OC)c1OC	-1.9	-0.4	-0.1	-6.6	i	-0.2	0.687	48.7	0.2	1.1
Cc1ccc(Cn2c(NC(=O)c3ccco3)nc3ccccc32)cc1	.	.	.	.	.	.	0.777	-0.2	0.4	-18.3
COCCn1c(SCc2cccnc2)nnc1-c1c[nH]c2ccccc12	-1.5	-2.5	-1.2	-3.6	i	-2.7	0.785	0.1	1.0	2.7
Cc1cc(NC(=S)N(CCCN2CCOCC2)Cc2ccco2)ccc1Cl	.	.	.	-11.6	.	.	0.686	-2.3	-0.2	4.5
Cc1cc(C)c(NC(=O)COC(=O)C2=COCCO2)c(Cl)c1	15.6	18.1	1.8	.	i	-7.3	0.619	-2.7	-0.3	1.4
